Bioassay records as filed in PubChem BioAssay.
miR-21 FLuc = miR-21 reporter, rising signal; HeLa miR-21 FLuc reporter, luciferase, 48 h; Potency, µM (series often up to 38.3 µM), for the others: top-dose reporter change, positive = more light; 340,000 tested, under 10 active; active = well fitted rising curve with a large enough effect; inconclusive = small, poorly fitted or top-dose-only effect; inactive = no such curve, though single readings can be large or run the other way;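 further: % of control where 0% means no effect; miR-21 action dims this reporter so a rising signal means less miR-21 action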
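Luminescence from a firefly luciferase reporter carrying a miR-21 binding site downstream, stably expressed under a CMV promoter in HeLa cells that make miR-21 endogenously, reports miRNA modulation after 48 h compound exposure up to approximately 40uM final.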
Rango complex inh = inhibitors of Rango-importin beta complex formation; actives 0.031% (n = 340,000); Q14974; Potency, µM (highest dose often 92.2 µM), for the others: at the highest dose inhibition of complex formation; Rango CFP/YFP FRET sensor + importin beta, 45 min; active = rising FRET ratio curve, often small or poorly fitted; inconclusive = mostly compound fluorescence or quenching in the first reads; inactive = flat curves in all reads;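 further: potency means the concentration at half of the fitted maximal effect; 0% = DMSO wells and 100% = buffer wells lacking importin beta; nearly all actives have a fitted effect of over 15% in size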
Target sequence (Q14974 whole entry, looked up): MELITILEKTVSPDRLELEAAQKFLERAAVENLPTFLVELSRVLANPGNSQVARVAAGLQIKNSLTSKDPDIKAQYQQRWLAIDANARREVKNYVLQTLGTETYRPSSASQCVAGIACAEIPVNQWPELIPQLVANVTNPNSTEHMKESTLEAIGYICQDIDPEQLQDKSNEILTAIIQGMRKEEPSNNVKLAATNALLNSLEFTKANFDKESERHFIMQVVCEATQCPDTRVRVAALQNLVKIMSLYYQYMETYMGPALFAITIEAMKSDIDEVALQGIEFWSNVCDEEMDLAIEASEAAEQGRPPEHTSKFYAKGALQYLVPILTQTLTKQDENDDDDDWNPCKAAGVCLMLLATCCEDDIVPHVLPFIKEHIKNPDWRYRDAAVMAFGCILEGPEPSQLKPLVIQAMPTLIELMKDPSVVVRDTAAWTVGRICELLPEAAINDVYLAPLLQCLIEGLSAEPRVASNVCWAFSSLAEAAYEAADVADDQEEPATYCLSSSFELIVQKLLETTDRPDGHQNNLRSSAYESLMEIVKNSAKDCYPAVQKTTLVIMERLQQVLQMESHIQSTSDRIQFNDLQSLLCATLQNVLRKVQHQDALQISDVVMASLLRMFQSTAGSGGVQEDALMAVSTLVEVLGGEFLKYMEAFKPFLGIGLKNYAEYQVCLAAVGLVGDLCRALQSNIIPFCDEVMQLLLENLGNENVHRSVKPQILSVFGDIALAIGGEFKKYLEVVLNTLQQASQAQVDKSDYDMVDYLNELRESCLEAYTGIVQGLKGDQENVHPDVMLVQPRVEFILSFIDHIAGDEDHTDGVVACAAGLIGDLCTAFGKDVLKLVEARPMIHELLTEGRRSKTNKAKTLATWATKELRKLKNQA
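FRET biosensor (snurportin 1 IBB flanked by EYFP and cerulean), 50 nM, with compound 5 min, then 0.125 microM importin beta in PBS, 1 mM DTT, 0.02% Tween-20, 0.1% BSA. CFP/YFP ratio read after 45 min at room temperature; pre-read flags interference.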
GLA inh pH 4.5 = blocks human alpha-galactosidase A at pH 4.5. P06280. purified enzyme, 4-MU-alpha-Gal fluorescence, pH 4.5. activity change, negative = inhibition, % at 105 µM. 230,000 tested, under 10 active. AID 1467; inconclusive = small, poorly fitted or top-dose-only inhibition, or a rising curve; inactive = flat fitted curve, though single readings scatter; no compound was filed as active;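 further: 0% = full activity with enzyme and -100% = basal without enzyme; dose as in the result columns while the protocol names 77 µM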
Rango release inh = prevents RanGTP from dissociating the Rango-importin beta complex; Biochemical FRET Rango-importin beta, RanGTP-induced dissociation; O95149+P62826; Potency, µM (doses to about 46.1 µM), for the others: at the top dose activity change, negative = inhibition; actives 0.071% (n = 340,000); active means falling FRET ratio curve, often poorly fitted, with flat reads before Ran was added; inconclusive means other falling curves, or compound fluorescence or quenching; inactive means flat or rising ratio curve;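 further: potency means the concentration at half of the fitted maximal effect; % of control where 0% means no effect; nearly all actives have a fitted effect of over 45% in size; -100% = wells without RanGTP and RCC1; the record marks most hits as doubtful in a second field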
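Quantitative HTS using a FRET biosensor: 0.1 uM Rango, 0.25 uM importin beta, 0.6 uM Ran, 2 mM GTP, 0.2 uM RCC1 final, PBS with DTT, Tween-20 and BSA. Post-read taken 45 min after Ran addition.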
The depositor's hits bear a star; ? = inconclusive; nt = no result given; & = joins results of further samples. An excerpt (hit frequency here may not be typical).

miR-21 FLuc | Rango complex inh | GLA inh pH 4.5 | Rango release inh | structure
-1% | 0.7% | 6 | 13% | Cn1c(SCC2CCCO2)nnc1-c1ccncc1 (centres undefined)
-15% | 3.8% | nt | 2% | CC1CN(C(=O)CCC(=O)NCCc2ccccc2)c2ccccc2O1 (centres undefined)
nt | 1.9% | nt | ? | Cc1cccn2c(=S)[nH]nc12
2% | 2.0% | nt | 5% | C/C(=N/N1CCN(Cc2ccccc2)CC1)c1ccc(Br)cc1
-6% | 3.8% | -8 | -9% | CCCCOC(=O)Nc1ccccc1C(=O)N1CCCC1
11% | -1.3% | nt | 2% | O=[N+]([O-])c1ccc(Cl)c(NC2=NCCCCC2)c1
-58% | 4.1% | 3 | -7% | COC(=O)C1C(=O)c2c([nH]c(C(=O)OC3CCCCC3)c2C)CC1C (centres undefined)
-4% | -5.8% | -21 | 5% | COc1cc2c(cc1NC(=O)c1cc(-c3ccncc3)nc3ccc(C)cc13)oc1ccccc12
nt | -4.2% | nt | -9% | CCC(=O)c1ccc(OCC(=O)N2CCN(S(=O)(=O)c3ccc(Cl)s3)CC2)cc1
-1% | 1.5% | -8 | -3% | O=C(Nc1ccn(Cc2c(F)c(F)c(F)c(F)c2F)n1)c1cccc(Cn2cc([N+](=O)[O-])cn2)c1
8% | 1.3% | nt | -2% | CCN1CCN(c2sc(S(C)(=O)=O)nc2S(=O)(=O)c2ccc(Cl)cc2)CC1
-6% | 5.8% | -19 | -9% | CCOc1ccc(C2NC(=O)C(C#N)=C(S)N2c2ccc(OC)cc2)cc1OC (centres undefined)
-6% | -2.1% | -4 | -1% | COc1ccc(F)cc1C(=O)C1CCCN(C(=O)c2ocnc2C)C1 (centres undefined)
-9% | 4.1% | -11 | -19% | CCOc1ccc(C2CC(=O)n3nc(C45CC6CC(CC(C6)C4)C5)nc3S2)cc1OC (centres undefined)
-51% | 0.0% | -3 | -13% | O=C(O)CCCC(=O)Nc1ccc(OCc2nc3ccccc3s2)cc1
-2% | -0.1% | 2 | 10% | Cc1ccc(C)c(-n2cc(CN3CCNC(=O)CC3)c(-c3ccccc3)n2)c1
-4% | -3.3% | 8 | -23% | COC(=O)c1[nH]c2c(c1C)C(=O)CC(c1ccc(C)cc1)C2 (centres undefined)
-1% | -0.7% | -6 | 15% | O=C(CNC1CCCCC1)NN=C(c1ccccc1)c1ccccc1
1% | 4.7% | -5 | 13% | O=C(O)COc1c(F)c(F)c(C(F)(F)F)c(F)c1F
nt | 0.3% | nt | 7% | C[C@@H]1NS(=O)(=O)c2cc(Cl)ccc2O[C@@H]1c1ccccc1

Profiles, looked up by structure:
C[C@@H]1NS(=O)(=O)c2cc(Cl)ccc2O[C@@H]1c1ccccc1 is listed as miR-21 FLuc = nt; Rango complex inh = 0.3%; GLA inh pH 4.5 = nt; Rango release inh = 7%
CC1CN(C(=O)CCC(=O)NCCc2ccccc2)c2ccccc2O1 (centres undefined) is listed as miR-21 FLuc = -15%; Rango complex inh = 3.8%; GLA inh pH 4.5 = nt; Rango release inh = 2%

(list continues)
miR-21 FLuc | Rango complex inh | GLA inh pH 4.5 | Rango release inh | structure
-4% | -1.6% | nt | -19% | CCCCn1c(N)c(N(CCOC)C(=O)c2ccc(Cl)c(S(=O)(=O)N3CCCC3)c2)c(=O)[nH]c1=O
-9% | -3.9% | nt | 21% | CN(CCc1ccccn1)Cc1ccc(Cl)c(Cl)c1
5% | 3.1% | nt | 6% | O=C(c1ccccc1)c1ccc(-n2ccnc2)c([N+](=O)[O-])c1
nt | 0.8% | nt | 12% | O=C(COc1ccccc1)N[C@@H]1c2ccccc2CC[C@H]1OCc1ccccc1
-3% | ? | -6 | ? | O=C1CCCc2c1cc(C(=O)Nc1ccc(Br)cn1)c(=O)n2-c1ccccc1
? | 0.0% | -12 | -1% | COc1cc(NCCCC(C)N)c2ncccc2c1 (centres undefined)
-8% | 0.1% | nt | -3% | CCc1ccc2oc(C(=O)N3CCN(c4ccc(OC)cc4)CC3)cc(=O)c2c1
-2% | -1.8% | 2 | -10% | CC1(C)CC(=O)c2cn3ncnc3nc2C1
nt | -1.2% | nt | -19% | COc1ccc(-c2nnc(NC(=O)CS(=O)(=O)c3ccc(F)cc3)o2)cc1
-7% | -1.0% | -9 | -6% | COc1ccc(C)cc1NC(=O)C(OC(=O)CNC(=O)c1ccc(Br)cc1)c1ccccc1 (centres undefined)
-5% | -2.8% | -1 | -12% | COc1ccccc1-n1c(Cc2cccs2)n[nH]c1=S
-11% | -0.2% | -5 | 8% | COC(=O)NNC(=O)Cc1cccc2ccccc12
nt | -1.5% | nt | 11% | CC(C)(C)OC(=O)N[C@H](/C=C/c1ccccc1)C(=O)OC(C)(C)C
-11% | ? | nt | -14% | O=C(NCCc1ccccc1Cl)c1ccc2nc3ccccc3c(=O)n2c1
-2% | ? | -2 | -10% | Cc1ccc(S(=O)(=O)NC(Cc2ccccc2)C(=O)O)cc1 (centres undefined)
-3%&0% | 4.2% | nt | -3% | COc1ccc(OC)c(CNC(=O)CCn2c(=O)c3cccn3c3ccc(F)cc32)c1
-20% | -0.5% | 2 | 1% | CCOC(=O)CCCn1nc(C)n2c(cc3sccc32)c1=O
-28% | 0.3% | -2 | 0% | O=C(CSc1cccc[n+]1[O-])Nc1cccc(Oc2ccccc2)c1
-1% | 2.4% | 10 | -6% | COc1ccc(NC(=O)C2CCCN(S(=O)(=O)c3cccnc3)C2)cc1 (centres undefined)
-2% | 0.7% | 8 | -5% | COC(=O)c1cc(OC)c(OC)cc1NC(=S)N1CCN(C)CC1
12% | -0.2% | -13 | -1% | CC1CC(C)CN(Cc2nc(N)nc(Nc3ccc4ccccc4c3)n2)C1 (centres undefined)
-33% | -2.9% | nt | 4% | Cc1ccc(NC(=O)NCCCN2CCCC2=O)cc1Cl
-3% | -5.3% | -5 | 1% | COc1ccc(CCNS(=O)(=O)c2ccc(F)cc2)cc1OC
3% | -1.3% | nt | 9% | COc1ccc(/C=C/C(=O)N2CCN(C)CC2)cc1OC
0% | -2.9% | -2 | 2% | CC(NC(=S)NC1CCCCC1)C(c1ccccc1)N1CCOCC1 (centres undefined)
-12% | 1.2% | 1 | -2% | Nc1nc(SCc2ccc([N+](=O)[O-])cc2)nc2nc3c(cc12)CCCC3
-11% | -3.2% | nt | -1% | COC(=O)c1ccc(C2/C(=C(/O)c3ccc(OC)cc3)C(=O)C(=O)N2Cc2ccco2)cc1 (centres undefined)
21% | -4.4% | 1 | 3% | Cc1ccc(C2(CC(=O)Nc3nccs3)CCOC(C(C)C)C2)cc1 (centres undefined)
-2% | -0.1% | 1 | -12% | O=C(O)Cn1c2ccccc2c2ccccc21
nt | ? | nt | -13% | CC(=O)Nc1cccc(NC(=O)C(=O)Nc2ccc3c(c2)N(C(=O)C2CC2)CCC3)c1
11% | 0.7% | nt | 0% | CCOC(=O)C1(Cc2ccc(OC)cc2)CCN(C(=O)c2cc(C)nn2C)CC1
-3% | 1.5% | -7 | -8% | O=C(CNc1cccc(C(F)(F)F)c1)N/N=C/c1ccccc1C(=O)O
-4% | 3.9% | -8 | 6% | COc1ccccc1CNCc1cccc(Oc2ccccc2)c1
-7% | -0.4% | 3 | 14% | CC(C)Cc1nc(NCCN2CCOCC2)c(C#N)c2c1COC(C)(C)C2
-10% | ? | 6 | 1% | Cc1ccc(Cl)cc1-c1ccc(/C=N/n2cnnc2)o1
-6% | -1.9% | nt | 1% | CCOC(=O)NC1Cc2ccccc2C1Sc1ccccn1 (centres undefined)
1% | -1.8%&-0.7% | 10 | 5%&-2% | CCN(CC)C(=O)CSC1=C(C#N)C(c2ccco2)C(C(=O)OCCOC)=C(C)N1 (centres undefined)
-1% | 7.0% | nt | 7% | CC1CCCN(C(=O)C2CCN(S(=O)(=O)c3cccc4nonc34)CC2)C1 (centres undefined)
-6% | 0.1% | nt | 14% | Cc1ccc(CSc2nc(N)cc(=O)[nH]2)cc1
-2% | 0.4% | nt | 6% | COc1cc(C(=O)N=C2SC3CS(=O)(=O)CC3N2c2ccccc2)cc(OC)c1OC (centres undefined)

Quoted at random: 2 compounds from above
miR-21 FLuc | Rango complex inh | GLA inh pH 4.5 | Rango release inh | structure
-12% | 1.2% | 1 | -2% | Nc1nc(SCc2ccc([N+](=O)[O-])cc2)nc2nc3c(cc12)CCCC3
-7% | -0.4% | 3 | 14% | CC(C)Cc1nc(NCCN2CCOCC2)c(C#N)c2c1COC(C)(C)C2

The listing picks up; the three compounds before the break are reprinted first.
miR-21 FLuc | Rango complex inh | GLA inh pH 4.5 | Rango release inh | structure
-1% | 7.0% | nt | 7% | CC1CCCN(C(=O)C2CCN(S(=O)(=O)c3cccc4nonc34)CC2)C1 (centres undefined)
-6% | 0.1% | nt | 14% | Cc1ccc(CSc2nc(N)cc(=O)[nH]2)cc1
-2% | 0.4% | nt | 6% | COc1cc(C(=O)N=C2SC3CS(=O)(=O)CC3N2c2ccccc2)cc(OC)c1OC (centres undefined)
-16% | 0.7% | -3 | 6% | CCN(CC(=O)NCc1ccc(F)cc1)C(=O)COc1ccc2ccccc2c1
nt | -4.5% | nt | 10% | CC(OC(=O)CC1CCCCC1)C(=O)Nc1ccc(S(N)(=O)=O)cc1 (centres undefined)
-6% | 0.9% | nt | 6% | Cc1c(OCC(=O)NCCN2CCOCC2)ccc2c1oc(=O)c1ccccc12
21% | 1.4% | -5 | -3% | O=C(Nc1ccc(Cl)cc1C(=O)Nc1ccncc1)c1ccco1
-8% | 3.3% | -1 | -1% | OC(COc1ccc2ccccc2c1)Cn1ccnc1 (centres undefined)
-17% | 1.5% | nt | 0% | COc1cccc(NC(=O)c2nnn(CC(=O)Nc3cc(C)cc(C)c3)c2N)c1
-2% | 2.7% | 5 | 12% | COCCn1ccc(O)c(Cc2ccc(Cl)cc2)c1=O
-3% | 3.9% | -4 | 3% | CC(=O)OC1C(OC(C)=O)N(C(C)=O)C(=O)N1C(C)=O (centres undefined)
-1% | 2.5% | -11 | 10% | CCN(CC)CCN(CC(=O)N(C1CCCCC1)C1CCCCC1)C(=O)c1ccco1
14% | -0.4% | 1 | -1% | CCOc1ccc(NC(=O)Cn2cncc2-c2ccc([N+](=O)[O-])cc2)cc1
0% | 2.0% | -4 | -4% | CC(Sc1nc2c([nH]c3ccccc32)c(=O)n1C)c1ccccc1 (centres undefined)
nt | 5.1% | nt | 22% | N#Cc1ccccc1OCC(=O)N(C1CCCCC1)C1CCS(=O)(=O)C1 (centres undefined)
3% | 3.2% | nt | -13% | CSc1ccc(S(=O)(=O)N2CCC(C(=O)NC3CC3)CC2)cc1
-13% | -0.2% | 6 | -1% | CCCSc1nnc2c(n1)OC(c1cccn1C)N(C(C)=O)c1ccccc1-2 (centres undefined)
-80% | -2.8% | 10 | -11% | Nc1nc2ccc(-c3nc4ccccc4o3)cc2s1
0% | -1.2% | -10 | 13% | OCCN(CCO)Cc1ccc(Br)cc1
0% | -1.9% | -3 | -8% | CCCC1NC(=S)NC(C)=C1C(C)=O (centres undefined)
3% | -6.2% | 6 | 1% | Cc1cc(C)n2c(=S)[nH]nc2n1
1% | -1.1% | 14 | -5% | O=C(NC1(C(F)(F)F)C(=O)Nc2c1c(=O)[nH]c(=O)n2-c1ccc(F)cc1)c1cccnc1 (centres undefined)
3% | 3.5% | -5 | 18% | C/C(=N\Nc1cc(C)nc(-c2ccccc2O)n1)c1ccccc1O
0% | -3.6% | 8 | 5% | Cc1nc(N2CCC(C)CC2)c2c(C)c(C(=O)Nc3cc(F)ccc3C)sc2n1
4% | -0.2% | 10 | -18% | CCOc1cc(NS(=O)(=O)CC)c(OCC)cc1NC(=O)c1ccco1
-4% | 1.3% | 5 | 0% | CC1CCCC(C)N1C(=O)Cn1cc(C#N)c2ccccc21 (centres undefined)
-31% | ? | nt | ? | COc1ccc(NC(=O)c2cc3ccccc3cc2O)cc1
-21% | 0.4% | nt | 7% | Cc1noc(C)c1COc1ccc(C(=O)Nc2ccccn2)cc1
10% | 7.0% | nt | ? | CC(=O)NNC(=O)c1[nH]c2ccc(Br)cc2c1-c1ccccc1
-3%&-1% | -3.4% | 0 | -5% | O=C(CSc1nc(-c2ccc(F)cc2)nc2c1Cc1ccccc1O2)Nc1cccc(C(=O)O)c1
2% | -3.3% | nt | -4% | O=C(Nn1cnnc1)c1cc(Br)ccc1Cl
-13% | -0.7% | 3 | 1% | CCOC(=O)c1oc2cc(O)ccc2c(=O)c1-c1ccccc1OC
